Screening data as filed in PubChem BioAssay.
NPYLR7 ag: agonists of mosquito NPYLR7 receptor, primary screen, cell-based, Aedes aegypti, calcium fluorescence, mosquito biting behavior; Aedes aegypti neuropeptide Y-like receptor 7 (NPYLR7); HEK293T NPYLR7/Galpha15, GCaMP6s calcium fluorescence; activation, % at 10 µM; 0.15% of 270,000 active; AID 1259423, 2018; in the data active = activation above about 40%;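 also: 0% = vehicle and 100% = reference agonist at the receptor; some compounds past the cut are filed as inactive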
NPYLR7 ag max-min: further read-out of NPYLR7 ag, marked with its call; activation, %; measured here: Max-Min RFU normalised activation; some inactives read as strong as hits;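 span of the calcium signal over five minutes; 0% = vehicle and 100% = native peptide agonist; compound fluorescence can raise it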
* marks the source's active call; other numbers are inactive results; & = joins results of further samples. Not all compounds are listed; rates above refer to the full screens.

#1 COc1ccc(-c2coc3c(C(=O)NC4CCCCC4)cccc23)c(C)c1
#2 O=C1CC(c2cccc(OCc3ccccn3)c2)c2c(nc3ccccn23)CN1 (stereo unspecified)
#3 O=C(NCC1Cc2ccccc2O1)Nc1ccc(NC(=O)C2CCCO2)cc1 (stereo unspecified)
#4 O=C(Nc1ccc(-n2nc(OCc3ccc(F)cc3)nc2-c2ccc(C(F)(F)F)cc2)cc1)c1cccc(F)c1
#5 CCCC(=O)NNC(=O)Cn1c(C(F)(F)F)nc2ccccc21
#6 CCOc1ccccc1NC(=O)CSc1nc2[nH]ncc2c(=O)[nH]1
Assay by compound	1	2	3	4	5	6
NPYLR7 ag	-16	-5	-1	-2	4	-3
NPYLR7 ag max-min	-15	-5	-3	2	-2	-4

The final four records of the section before come first, to join the parts.
#3 O=C(NCC1Cc2ccccc2O1)Nc1ccc(NC(=O)C2CCCO2)cc1 (stereo unspecified)
#4 O=C(Nc1ccc(-n2nc(OCc3ccc(F)cc3)nc2-c2ccc(C(F)(F)F)cc2)cc1)c1cccc(F)c1
#5 CCCC(=O)NNC(=O)Cn1c(C(F)(F)F)nc2ccccc21
#6 CCOc1ccccc1NC(=O)CSc1nc2[nH]ncc2c(=O)[nH]1
#7 CN(C(=O)c1ccccc1C(=O)NCc1ccc(F)cc1)C1CCCCC1
#8 CC=CCn1c(SCc2ccc(Cl)cc2)nc2c1c(=O)[nH]c(=O)n2C
#9 CCC(C)NC(=O)NCc1nnc2c(Cl)cc(C(F)(F)F)cn12 (stereo unspecified)
#10 CC(C)CC(=O)Nc1ccc(C2=NNC(=NC3CC3)SC2)cc1
#11 CCOC(=O)c1c(NC(=O)c2ccccc2OCC)sc2c1CCC(c1ccccc1)C2 (stereo unspecified)
#12 CC1=C(C(=O)OC(C)C)C(c2cccs2)n2c(sc(=Cc3ccc(C)o3)c2=O)=N1 (stereo unspecified)
Assay by compound	3	4	5	6	7	8	9	10	11	12
NPYLR7 ag	-1	-2	4	-3	-3	0	13	10	6	9
NPYLR7 ag max-min	-3	2	-2	-4	-6	2	10	4	-1	7

#13 Fc1cccc(F)c1C=NNC(=S)NN=Cc1c(F)cccc1F
#14 Cc1cc(C(=O)NCC2(Cn3ccnc3)CC2)cc2sc(N)nc12
#15 Cc1oc(C(C)C)cc1C(=O)NCCc1nnc(N)s1
#16 O=C1CN(C(=O)c2cccn(Cc3ccccc3)c2=O)C2CCCCC2N1 (stereo unspecified)
#17 CCCNC(=O)CSc1nnc(N2CCCCC2)n1-c1ccc(C)cc1
#18 O=S(=O)(NCCc1nnc2ccc(SCc3ccccc3F)nn12)c1ccccc1
Assay by compound	13	14	15	16	17	18
NPYLR7 ag	-1	-6	-2	1	-6	0
NPYLR7 ag max-min	4	-9	1	21	-7	-8

#19 CC(C)N1CCN(Cc2cn(-c3ccccc3)nc2-c2ccccc2)CC1CCO (stereo unspecified)
#20 COc1cccc2sc(N(CCN(C)C)C(=O)c3cccs3)nc12
#21 NC(=O)c1ccccc1NC(=O)C1CCCN(c2ccc(-c3ccccc3)nn2)C1 (stereo unspecified)
#22 CCCCN(CC(=O)N1c2ccccc2-n2cccc2C1c1ccc(OC)cc1)C(=O)NC12CC3CC(CC(C3)C1)C2 (stereo unspecified)
#23 CC1CC1C(=O)Nc1ccc(Cl)c(S(=O)(=O)N2CCCC2)c1 (stereo unspecified)
#24 O=[N+]([O-])c1cc(C=NN2CCOCC2)ccc1Sc1ncccn1
Assay by compound	19	20	21	22	23	24
NPYLR7 ag	6	-5	-13	17	10	-1
NPYLR7 ag max-min	3	-8	-18	24	10	6

#25 COc1ccc(S(=O)(=O)N2CCN(CCCOC(c3ccc(Cl)cc3)c3ccc(Cl)cc3)CC2)cc1OC
#26 O=c1[nH]c2ccccc2n1CCCSc1nnc(COc2ccccc2Cl)o1
#27 CCN(CCN1C(=O)CNC1=O)Cc1cccc(F)c1
#28 Cc1cccnc1C(NC(=O)C1CCN(Cc2ccc3ccccc3n2)CC1)c1ccccc1 (stereo unspecified)
#29 CCCS(=O)(=O)N1CCN(c2ncnc3c2nnn3-c2ccccc2)CC1
#30 C=CCNc1nnc(SCC(=O)NNC(=O)c2ccc(F)cc2)s1
Assay by compound	25	26	27	28	29	30
NPYLR7 ag	1	6	-3	0	-6	8
NPYLR7 ag max-min	-1	3	-3	-1	-5	13

#31 COc1cc(F)ccc1NC(=O)N1CCC(N2CCCC2)C1 (stereo unspecified)
#32 COc1cccc(CNC(=O)C2CCN(C(=O)[C@H](C)NC(=O)Nc3ccc(Br)cc3Cl)CC2)c1
#33 Cc1noc(CN(C)C(=O)C2CCCCN2Cc2ccccc2)n1 (stereo unspecified)
#34 O=C(NCC(c1cccc2ccccc12)N1CCCC1)C(=O)Nc1ccc([N+](=O)[O-])cc1 (stereo unspecified)
#35 Cn1c(SCc2cc(Cl)c3c(c2)OCCO3)nnc1C1CC1
#36 CN(C)CCC1Sc2ccccc2Sc2ccccc21 (stereo unspecified)
Assay by compound	31	32	33	34	35	36
NPYLR7 ag	-22	0	10	-1	0	5
NPYLR7 ag max-min	-18	5	8	4	9	2

#37 COc1ccccc1C1C(C(N)=O)=C(C)Nc2ncnn21 (stereo unspecified)
#38 O=C(N1CCN(C(=O)C23CC4CC(CC(C4)C2)C3)CC1)C12CC3CC(CC(C3)C1)C2
#39 Cc1c(C(=O)NCCCN2CCOCC2)cnc2c(-c3ccc(C(C)C)cc3)cnn12
#40 COCCCN1C(=O)C(=Cc2c(N3CCC(C)CC3)nc3ccc(C)cn3c2=O)SC1=S
#41 COCCNC(=O)CN1CCN(C(=O)c2cn(C)cc3c(=O)n(-c4ccccc4)nc2-3)CC1
#42 Cc1cn2c3c(=O)n(Cc4ccc(Br)cc4)c(=O)n(C)c3nc2n1Cc1ccco1
Assay by compound	37	38	39	40	41	42
NPYLR7 ag	-3	4	15	1	-3	1
NPYLR7 ag max-min	1	7	10	-2	-8	3

#43 COc1ccc(N2CCN(C(=O)C3CCCCC3C(=O)Nc3cc(OC)ccc3OC)CC2)cc1 (stereo unspecified)
#44 COc1cc(Br)c(CC(=O)NC(c2ccc(Cl)cc2)c2nccn2C)cc1OC (stereo unspecified)
#45 CNc1ccnc(N2CCC(Cn3cc(-c4ccccn4)nn3)CC2)n1
#46 O=C(CSc1nc2ccccc2c(=O)[nH]1)c1cccs1
#47 N#CC1(c2ccccc2)CCN(C(=O)C2CC=CCC2C(=O)NCCCc2ccccc2)CC1 (stereo unspecified)
#48 N#CCCSc1nc2sc3c(c2c(=O)n1Cc1ccco1)CCCC3
Assay by compound	43	44	45	46	47	48
NPYLR7 ag	-5	2	0	-3	-5	8
NPYLR7 ag max-min	-10	-1	-6	-3	-15	5

#49 CCC(C)CCCCC(=O)NC(CCN)C(=O)NC(C(=O)NC(CCN)C(=O)NC1CCNC(=O)C(C(C)O)NC(=O)C(CCN)NC(=O)C(CCN)NC(=O)C(CC(C)C)NC(=O)C(Cc2ccccc2)NC(=O)C(CCN)NC1=O)C(C)O (stereo unspecified)
#50 CCc1cnc(-c2cccc(O)c2)nc1
#51 COc1ccc(Cl)cc1-c1cccc(-n2cncc2C(=O)NCc2c(F)cccc2F)c1
#52 O=c1[nH]c2cc(Cl)ccc2c(O)c1-c1ccc(Oc2ccccc2)cc1
#53 O=C1OC(c2ccc([N+](=O)[O-])cc2)=N/C1=C/C=C/c1ccccc1
#54 COCCNC(=O)Cn1nc2c(c1NC(=O)C1(c3ccc(Cl)cc3)CCCC1)CSC2
Assay by compound	49	50	51	52	53	54
NPYLR7 ag	-7	-3	-3	3	6	-5
NPYLR7 ag max-min	-14	-3	-10	-45	1	5

#55 O=c1[nH]cnc2c1C(c1ccc([N+](=O)[O-])cc1)c1c(nc[nH]c1=O)O2
#56 Cc1ccc(NC2=C(Cl)C(=O)N(Cc3ccc(Br)cc3)C2=O)cc1Cl
#57 O=C(c1cc(=O)c2ccccc2o1)N1CCN(Cc2nc(C3CC3)cs2)CC1
#58 CC1(C(=O)Nc2cccc3c2CCCC3)CCN1C(=O)CCC1CCCC1 (stereo unspecified)
#59 Cc1ccc(-c2cnc(SCCNC(=O)Cc3ccccc3)[nH]2)cc1
#60 CC(Oc1ccccc1)C(=O)N1CCC(Cc2ccc(C(F)(F)F)cc2)CC1 (stereo unspecified)
Assay by compound	55	56	57	58	59	60
NPYLR7 ag	0	-4	-11	4	2	3
NPYLR7 ag max-min	14	-10	-15	1	1	11

#61 COc1cc(-c2cccc(C(C)N3CCCC3)c2)cc2cc(C(=O)O)oc12 (stereo unspecified)
#62 COC(=O)[C@@H](NC(=O)C1CCCN(C(=O)c2cc(C)cc(C)c2)C1)C(C)C (stereo partly specified)
#63 CN1CCN(NC(=O)CN2C(=O)S/C(=C\c3c(Cl)cccc3Cl)C2=O)CC1
#64 CCC(=O)c1ccc(OCC(=O)N2CCN(C(=O)C3CCCO3)CC2)cc1 (stereo unspecified)
#65 C=CCN(CC(=O)N1CCc2sccc2C1c1ccc(Cl)cc1)C(=O)CCc1ccccc1 (stereo unspecified)
#66 COc1cc(C=Nn2cnnc2)cc(Br)c1OC(C)C
Assay by compound	61	62	63	64	65	66
NPYLR7 ag	12	10	7	-7	3	4
NPYLR7 ag max-min	12	5	12	-13	11	5

#67 O=C(CCN[C@H]1c2ccccc2C[C@H]1O)Nc1nnc(C2CC2)s1
#68 Cc1cc(C)n(CC(C)NCc2ccccc2-n2ccnc2C)n1 (stereo unspecified)
#69 CN(C)c1ccc(C(=O)N2CCCC(N3CCN(Cc4ccc5c(c4)OCO5)CC3)C2)cc1 (stereo unspecified)
#70 CCC(C(=O)NCCN1CCOCC1)n1c(=O)n(-c2cccc(F)c2)c(=O)c2ccccc21 (stereo unspecified)
#71 O=C(Nc1cnc2ccccc2c1)C(=O)N1CCC(Oc2ccccc2)CC1
#72 C=CCn1c(-c2ccc(F)cc2)n[nH]c1=S
Assay by compound	67	68	69	70	71	72
NPYLR7 ag	15	24	19	16	-3	-15&-8
NPYLR7 ag max-min	10	13	13	14	-5	-8&-8

#73 CCOP(=O)(CNC(=O)C=Cc1cc(Br)ccc1OC)OCC
#74 N#C/C(=C\c1cn(Cc2ccc(Cl)c(Cl)c2)c2ccccc12)c1nn(CCO)c(N)c1C#N
#75 CN(C)CCCNS(=O)(=O)c1ccc2c(c1)OCCCO2
#76 FC(F)(F)c1ccc(-c2nc3ccc(Br)cn3c2NCc2ccccc2)cc1
#77 COc1ccc(C(NC(=O)NC2CCCCCCC2)c2nccn2C)cc1 (stereo unspecified)
#78 CC1Cc2cc(S(N)(=O)=O)ccc2N1S(=O)(=O)c1ccc(OC(F)(F)F)cc1 (stereo unspecified)
Assay by compound	73	74	75	76	77	78
NPYLR7 ag	0	3	9	24	-6	7
NPYLR7 ag max-min	-6	4	11	33	-6	4

#79 Cc1ccc(C(NC(=O)CCn2c(C)cc(C)nc2=O)c2ccncc2)cc1 (stereo unspecified)
#80 O=C(c1ccc(Cl)cc1)N1CCCC(OCc2ccc(C(F)(F)F)cc2)C1 (stereo unspecified)
#81 CCC(C(=O)Nc1cccc(C2SCC(=O)N2c2ccc(OC)cc2)c1)c1ccccc1 (stereo unspecified)
#82 Nc1cc(=O)[nH]c(CCNCC2(O)CCCNC2)n1 (stereo unspecified)
#83 CC(C)CN(CC(=O)N(Cc1ccc(F)cc1)Cc1ccco1)Cc1cc(F)ccc1F
#84 O=C(O)c1cccnc1CN1CCCC1c1ccco1 (stereo unspecified)
Assay by compound	79	80	81	82	83	84
NPYLR7 ag	1	-4	-3	0	5	5
NPYLR7 ag max-min	1	3	-1	-2	12	4

#85 FC(F)(F)c1ccccc1C=NN1CCN(Cc2ccccc2)CC1
#86 CC(C)(C)c1nnnn1Cc1cn(-c2ccc(Cl)cc2)nn1
#87 CC(C)CC(=O)N(Cc1ccco1)Cc1c(-c2ccccc2)noc1N1CCCC1
#88 O=C(NCc1ccc(F)cc1)c1ccc(Nc2c(Oc3ccc4c(c3)OCO4)cnn(-c3ccccc3)c2=O)cc1
#89 Nc1c(C(=O)CSc2ncnc3sccc23)c(=O)[nH]c(=O)n1C1CC1
#90 Cc1n[nH]c(C)c1CCc1nncn1-c1cccc2ccccc12
Assay by compound	85	86	87	88	89	90
NPYLR7 ag	-5	-1	2	9	4	8
NPYLR7 ag max-min	-12	19	3	6	2	-3

#91 CN(C)C=Nc1ncc(Sc2ccccc2[N+](=O)[O-])s1
#92 O=C(CCc1nc2ccccc2[nH]c1=O)OCc1ccc(C(=O)c2ccccc2)cc1
#93 Nc1ncnc(N/N=C\c2ccccc2)c1[N+](=O)[O-]
#94 CC(C)C1CCN(C(=O)NC2CCCC(S(C)(=O)=O)C2)CC1 (stereo unspecified)
#95 Cc1ccc(-n2nc(C(=O)NCCc3ccccn3)c(=O)n(Cc3ccccc3Cl)c2=O)cc1C
#96 Cc1n[nH]c(=O)n1-c1ccc(F)c(Cl)c1
Assay by compound	91	92	93	94	95	96
NPYLR7 ag	6	2	-8	4	-5	-8
NPYLR7 ag max-min	4	1	-13	3	4	-8

#97 C=CCSc1nnc(NC(=O)c2cccc(Br)c2)s1
#98 CSc1c(Br)csc1/C(=N\OS(C)(=O)=O)C(F)(F)F
#99 N#Cc1cnn(C(=O)c2cccs2)c1N
#100 CN(Cc1ccccc1)c1ncccc1CNC(=O)C1CNCCO1 (stereo unspecified)
#101 CCc1c(C(=O)N2CCCC2c2nc(CCOC)no2)[nH]c2ccccc12 (stereo unspecified)
#102 COc1c(C)cnc(CN(C)Cc2cnccn2)c1C
Assay by compound	97	98	99	100	101	102
NPYLR7 ag	-2	4	-4	9	5	5
NPYLR7 ag max-min	11	6	2	2	-1	5
